# T cruzi inh: blocks replication of Trypanosoma cruzi; T. cruzi beta-gal in NIH3T3, luminescence, 90 h; inhibition, % (test concentration not listed); 1.4% of 300,000 active; AID 1885;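 active = mean inhibition across valid replicates above about 55%, limit read from the data; inconclusive = mean below that limit but half or more replicates reach it; inactive = mean below it, under half of replicates reach it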;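 note: signal also drops with host cell toxicity which is not excluded here; 0% = plate median of DMSO wells and 100% = zero luminescence signal; higher percent means less beta-gal luminescence so fewer parasites; stock transfer was 50 nL into about 50 µL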
# Vif TR-FRET: inhibitors of Vif binding to APOBEC3G peptide, primary screen, biochemical, TR-FRET, GST-Vif 1-94, biotin-A3G peptide, dose response retest (AID 1117319). TR-FRET GST-Vif / biotin-A3G peptide binding; higher % means a stronger effect; test concentration not given here; strong numbers were not always called active. one-dose inhibition, %; IC50 in µM for titrated hits. 0.57% of 260,000 active;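 active = above the screen mean plus three standard deviations and confirmed in dose response; inconclusive = results disagree or hit not tested in dose response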;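 note: Vif residues 1-94 fused to GST binding biotinylated APOBEC3G peptide 110-148; 0% = full assay without inhibitor and 100% = GST in place of GST-Vif; retest series ran down from 100 µM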
# Calb FLC: affects C. albicans growth with fluconazole | growth inhibition, % (test concentration not listed) | AID 1979 | C. albicans CaCi-2 (fluconazole-resistant clinical isolate) + fluconazole, Alamar Blue growth, 48 h | 0.57% of 300,000 active;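 active = most replicates above 75%; inconclusive = exactly half above 75%; inactive = most below 75%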;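 note: all wells also contain fluconazole at 8 µg/ml as a sub-toxic cotreatment; 0% = median of DMSO wells and 100% = median of geldanamycin control wells; wells of about 8 µL received 7.5 nL stock; the first replicate is given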
# RanGTP-Imp inh: disruptors of Ran-importin-beta complex formation – biochemical, FRET, CFP-Ran, YFP-importin-beta, homogeneous, primary screen; cell-free CFP-Ran/YFP-importin-beta FRET ratio; inhibition, % (no concentration beside the values); 1.1% of 300,000 active; AID 2216;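 active = most replicates above 15%; inconclusive = exactly half above 15%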;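 note: 0% = DMSO wells and 100% = Ran loaded with GDP instead of GTP; wells of about 40 µL received 100 nL stock; the first replicate is given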
# Beta apoptosis: beta cell apoptosis inhibition; INS-1E cytokine-induced death, ATP luminescence, 48 h; percent of positive-control rescue, neutral wells zero; protection from apoptosis, % (no concentration beside the values); 0.8% of 300,000 active;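 active = all replicates at 75% or more, or half of them and the mean; inconclusive = half reach 75% but not the mean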;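 note: 0% = cytokine-treated negative control wells and 100% = positive control rescue; higher means more ATP so stronger rescue from cytokine killing; wells of about 40 µL received 100 nL stock; the first replicate is given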
# rRNA inh HTS: inhibitors of bacterial rRNA selective over humanized ribosomes; 1.6% of 350,000 active; GFP signal change (wild-type ribosome), % (test concentration not listed); E. coli WT GFP vs humanized-ribosome RFP mutants, fluorescence, 24 h; active compounds read low; DMSO median 0, no signal -100;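 active = significant combined selectivity score with lowered wild-type GFP, culture density cut under 30%, mutant RFP and density less affected; inactive = any of these conditions unmet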; note: one replicate is shown; some compounds called inactive have numbers as strong as hits
# Bfl-1 A1 inh: inhibitors of the anti-apoptotic protein A1, read as caspase activation | AID 2462 | 0.066% of 330,000 active | caspase activation, % (test concentration not listed) | MEF A1-2A-BIM cells, Caspase-Glo 3/7 luminescence, 3 h; percent of clofoctol response, vehicle zero;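 active = over half of replicate activation scores above 10%, or exactly half above 10 with the replicate mean above 10; inconclusive = replicate mean below 10 yet half the replicates above 10; inactive = over half of replicates below 10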;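 note: wells of about 30 µL received 50 nL stock; many hits fall short of the cut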
# MLL AF4-AF9 inh: inhibitors of human MLL-AF4/AF9 interaction | P42568 | AlphaScreen, biotin-AF4 peptide binding to FLAG-AF9 | inhibition, % at 10 µM | 0.47% of 350,000 active;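 active = every replicate reaching a set inhibition limit, whatever the replicate mean, cut at about 25% in these data; inconclusive = mean inhibition reaches that limit but some replicates miss it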;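 note: 0% = plate neutral control median and 100% = total signal loss; the record names both 10 and 1 µM as test concentration; the first replicate is given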
# Target sequence (P42568 whole entry, looked up): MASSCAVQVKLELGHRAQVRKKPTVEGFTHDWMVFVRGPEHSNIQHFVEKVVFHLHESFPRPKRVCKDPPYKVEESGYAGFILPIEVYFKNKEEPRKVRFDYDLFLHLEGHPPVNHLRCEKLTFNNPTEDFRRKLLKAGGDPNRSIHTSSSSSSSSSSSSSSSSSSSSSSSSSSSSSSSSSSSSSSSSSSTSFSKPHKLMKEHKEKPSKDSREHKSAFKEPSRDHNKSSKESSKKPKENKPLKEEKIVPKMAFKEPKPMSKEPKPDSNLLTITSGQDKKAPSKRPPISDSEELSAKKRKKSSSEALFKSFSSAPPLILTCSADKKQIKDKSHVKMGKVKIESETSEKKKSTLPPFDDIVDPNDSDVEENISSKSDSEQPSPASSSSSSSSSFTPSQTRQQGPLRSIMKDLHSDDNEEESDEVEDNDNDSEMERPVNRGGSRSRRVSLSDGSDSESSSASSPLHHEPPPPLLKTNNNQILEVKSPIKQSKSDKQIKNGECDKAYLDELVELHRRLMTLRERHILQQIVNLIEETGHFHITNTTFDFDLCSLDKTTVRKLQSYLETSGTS
# rRNA inh HTS OD600: also measured in rRNA inh HTS; calls as there; OD600 change, %; measured here: OD600 growth;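 optical density of the mix in the first replicate; 0 = DMSO median and -100 = no signal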
# rRNA inh HTS RFP: further read-out of rRNA inh HTS, marked with its call; RFP signal change, %; measured here: RFP humanized mutant strains;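 first replicate; 0 = DMSO median and -100 = no signal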
# Starred values were filed as active, the others as inactive; ? = inconclusive; . = no result given. Some of the compounds tested (hit frequency here may not be typical).
SMILES,T cruzi inh,Vif TR-FRET,Calb FLC,RanGTP-Imp inh,Beta apoptosis,rRNA inh HTS,rRNA inh HTS OD600,rRNA inh HTS RFP,Bfl-1 A1 inh,MLL AF4-AF9 inh
CN1C(C(=O)NCc2ccco2)CC2Cn3c(nc4cc5ccccc5cc43)C21 (centres undefined),3,7%,-17,0.6,-1,7,1,-3.0,-0.2,-8.3
CCc1ccc(NC(=O)C2CCN(c3ncnc4c3nc3n4CCCCC3)CC2)cc1,4,.,-2,2.4,2,0,11,-1.6,-0.8,1.9
COc1cc(C(=O)N(CCCO)Cc2cc3ccc(C)c(C)c3[nH]c2=O)cc(OC)c1OC,6,3%,5,-3.4,-6,.,.,.,-0.1,.
COc1cccc(CN2CCNC(=O)C2CC(=O)NC2CCOCC2)c1OC (centres undefined),-10,-4%,0,-2.8,.,4,14,-0.9,.,-0.3
Cc1ccc(C(=O)CCC(=O)NCc2ccccc2)cc1,0,.,5,-3.4,-4,-1,-3,-1.0,-1.8,-9.2
COCCn1c(-c2cccs2)nc2nc3ccccc3nc21,-13,-10%,8,7.2,-1,.,.,.,0.5,-2.1
O=c1[nH]c2ccc(F)cc2[nH]c1=O,-26,0%,-7,6.2,-4,8,10,-2.0,2.2,-2.3
O=C(Oc1cccc(NC2=NS(=O)(=O)c3ccccc32)c1)c1cccnc1,-3,-5%,1,6.6,-2,2,5,0.9,0.1,-0.6
CCOc1ccccc1NC(=O)C1Cc2ccccc2CN1S(C)(=O)=O (centres undefined),10,-1%,-6,1.3,.,.,.,.,-0.4,.
COC(=O)c1ccc(C(=O)O)nc1,-1,-5%,-4,5.8,-10,6,7,1.7,0.6,2.0
CCOC(=O)N1CCC(NC(=O)c2cc3c(C)nc4ccccc4c3o2)CC1,13,71%,-1,-2.4,1,-7,-11,2.3,-0.5,-3.6
CN(CCN1CCOCC1)Cc1nc(-c2ccc3c(c2)OCO3)no1,2,.,5,-0.3,-2,10,-2,-5.6,-0.2,-3.0
CN(CC(=O)NCCCN1CCOCC1)S(=O)(=O)c1ccc(Cl)cc1,.,-9%,.,.,0,4,4,0.3,-0.8,-1.1
Cc1ccc(C(=O)NCC(=O)NC2CCCC2)cc1,-13,16%,0,-0.4,-18,7,13,1.4,0.4,-1.4
CC(COc1ccccc1)N1CCC(CO)(CCc2ccccc2)CC1 (centres undefined),29,-1%,-5,-1.4,-1,-11,-13,3.5,0.3,5.1
COc1cccc(C(=O)Nc2cccc3cccnc23)c1OC,2,.,12,6.1,-1,.,.,.,0.3,.
CNC(=O)c1ccc(-c2sc3nc(N4CCOCC4)c4c(c3c2N)CC(C)(C)OC4)o1,9,-2%,2,?,16,.,.,.,0.5,.
CN(C)Cc1c(C(=O)N/N=C/c2cccc(OCc3c(F)cccc3Cl)c2)nnn1-c1nonc1N,31,.,-10,4.7,-1,3,-1,0.7,0.1,1.4
CC(Oc1ccccc1)C(=O)Nc1cc(Cl)ccc1-n1cncn1 (centres undefined),-5,4%,-1,4.1,-3,-6,-14,-1.0,0.3,-12
COc1ccc(OC)c(N(CC(=O)NCCSCc2ccco2)S(=O)(=O)c2ccccc2)c1,16,.,18,24,-1,-1,2,0.3,0.0,-1.5
Cc1ccc(C)c(NC(=O)CCn2nc(C)cc2C)c1,1,-4%,-10,-1.5,.,.,.,.,1.9,.
O=c1c2[nH]c3ccc(F)cc3c2ncn1CCCN1CCOCC1,-2,-1%,-6,-5.8,-2,.,.,.,0.2,.
COc1ccc(C)cc1N(CC(=O)N/N=C/c1ccccc1C(=O)O)S(=O)(=O)c1ccccc1,-10,1%,30,4.2,-3,4,-10,2.7,-0.9,-7.0
COc1ccc(CN2CCC(CO)(Cc3ccccc3)CC2)cc1Cn1cccn1,45,23%,-18,-4.1,-3,5,0,0.7,0.2,0.8
CCOc1ccc(N(CC(=O)NN=C2CCN(C)CC2)S(=O)(=O)c2ccc(Br)cc2)cc1,3,.,-2,2.8,-7,2,9,4.2,1.0,3.3
CNC(=S)n1cnc(N)n1,-5,17%,1,0.3,-12,0,10,-0.1,0.3,-5.6
CC(=O)N(c1ccccc1)c1nc(C)cc(C)c1C#N,-3,.,3,0.9,4,.,.,.,0.1,.
Cc1ccc(-c2c(C(=O)N3CCOCC3)oc(=O)c3ccccc23)cc1,11,8%,-3,5.9,0,-4,-2,1.4,1.0,-0.7
COCCNS(=O)(=O)c1ccc(SC)cc1,-5,-7%,0,3.9,2,4,-7,-3.3,-0.3,3.1
CCOc1ncccc1C(=O)OCCCC(=O)c1ccc(Br)cc1,.,-7%,.,.,-6,-15,-27,-3.2,2.3,0.4
CC1(C)Cc2c(sc3[nH]c(=S)n(Cc4ccccc4)c(=O)c23)CO1,12,-7%,23,0.0,13,-38,-32,-7.7,-0.2,2.7
COC(=O)c1c(NC(=O)c2ccccc2F)sc(C(=O)N2CCOCC2)c1C,4,.,-4,-1.1,0,3,0,-0.4,1.0,0.5
S=C(Nc1ccccc1)N1CCOCC1,18,.,21,?,-3,5,3,-1.2,-0.3,-7.1
Cn1c(NN)nc2ccccc2c1=O,-1,9%,-9,.,-1,23,16,2.3,-0.5,0.6
COc1ccc(C(=O)Nc2cc(C)nn2-c2ccc(F)cc2)cc1,-7,.,4,-3.5,-5,7,6,0.4,1.1,-1.8
NC(=O)c1ccsc1NC(=O)COC(=O)c1cc(Cl)ccc1O,2,1%,.,7.3,-5,-16,-6,2.2,-0.4,3.1
CCOc1ccc(NCc2nnc(SCC(=O)Nc3cc(C)on3)n2-c2ccccc2OC)cc1,?,?,-3,0.9,-3,-5,1,-6.0,-0.1,14
COc1cccc(C(=O)NC2CCCc3ccccc32)c1 (centres undefined),-1,.,-16,-0.1,-1,10,3,1.1,0.4,0.1
CCCn1c(C(C)Nc2nc(-c3ccc(C)cc3)cs2)nc2cc(Cl)c(Cl)cc21 (centres undefined),32,.,-2,-0.1,-1,7,10,16,0.0,0.8
COC(=O)c1sc(N2C(=O)C(O)=C(C(=O)c3ccc(C)o3)C2c2ccco2)nc1C (centres undefined),-13,.,-5,0.1,-6,-1,-16,2.8,0.9,-0.3
CCOC(=O)c1c(C)n(-c2ccc(C)cc2)c2ccc(O)c(CN(C)C)c12,26,1%,26,.,45,-29,-43,-9.3,0.0,17
CC(C)n1c(-c2ccncc2)n[nH]c1=S,-4,?,1,-1.8,-2,15,10,2.6,2.2,-2.6
O=C(NC(=S)NCc1ccc(-c2nc3ccccc3s2)cc1)c1ccco1,-3,.,2,0.6,6,.,.,.,-1.1,.
O=C1Nc2ccccc2OC1CC(=O)N1CCOCC1 (centres undefined),-3,3%,5,0.1,.,2,5,11,0.6,-1.7
CCN(CC)CCn1c(SCC(=O)NCc2ccccc2)nc2c(sc3ccccc32)c1=O,7,-1%,-10,1.1,-4,2,8,-1.0,0.7,0.5
COc1cc(CC2COC(c3ccc(O)c(OC)c3)C2COC(C)=O)ccc1O (centres undefined),.,.,.,.,-5,5,9,4.8,0.6,0.7
O=C(c1ccc(F)cc1)C1CCN(C(=O)c2ccc(F)cc2)CC1,-14,.,-6,4.2,1,-15,-11,-0.9,0.7,-2.0
CCOc1cc(C(=O)NCCc2ccc(S(N)(=O)=O)cc2)cc(OCC)c1OCC,-4,.,-1,2.8,-4,5,1,-1.8,0.0,0.3
CCn1c(NCc2cccs2)nc2ccccc21,-12,3%,-12,-2.7,.,.,.,.,0.4,.
CCn1c(/C=C/c2ccccc2)nc2ccccc2c1=O,3,.,-18,4.8,4,3,2,1.1,0.4,9.7

# Compound profiles, as listed above. Values in the order: T cruzi inh	Vif TR-FRET	Calb FLC	RanGTP-Imp inh	Beta apoptosis	rRNA inh HTS	rRNA inh HTS OD600	rRNA inh HTS RFP	Bfl-1 A1 inh	MLL AF4-AF9 inh
# Entry for CN(C)Cc1c(C(=O)N/N=C/c2cccc(OCc3c(F)cccc3Cl)c2)nnn1-c1nonc1N : 31	.	-10	4.7	-1	3	-1	0.7	0.1	1.4
# Entry for CCOc1cc(C(=O)NCCc2ccc(S(N)(=O)=O)cc2)cc(OCC)c1OCC : -4	.	-1	2.8	-4	5	1	-1.8	0.0	0.3
# Entry for O=C(c1ccc(F)cc1)C1CCN(C(=O)c2ccc(F)cc2)CC1 : -14	.	-6	4.2	1	-15	-11	-0.9	0.7	-2.0

# Next section:
SMILES,T cruzi inh,Vif TR-FRET,Calb FLC,RanGTP-Imp inh,Beta apoptosis,rRNA inh HTS,rRNA inh HTS OD600,rRNA inh HTS RFP,Bfl-1 A1 inh,MLL AF4-AF9 inh
CCOCCCN(C)C1CCN(S(=O)(=O)c2csc(C(N)=O)c2)CC1,25,.,2,2.9,3,5,14,-1.7,-0.3,-12
COc1ccc2c(C)cc(SCC(=O)Nc3cc(C(N)=O)cc(C(N)=O)c3)nc2c1,-19,-231%,0,1.7,3,10,-7,-3.4,2.6,-13
Cc1cc(CNC(=O)c2cccnc2Cl)c2ccccc2n1,-12,-5%,8,-4.5,-3,10,0,-3.0,-0.4,0.7
CC[C@H]1C/C=C\Cc2ccccc2[C@H](C(=O)C[C@@H](O)CC(C)=O)OC1=O,.,3%,.,.,-6,-1,1,-0.4,-0.7,1.6
O=C(NC1CCCC1)C(c1cccnc1)N(C(=O)c1csnn1)c1ccc(F)cc1 (centres undefined),11,8%,4,2.2,-7,.,.,.,0.6,3.9
Cc1ccc(-c2nc(CN3CCN(c4cnccn4)CC3)c(C)o2)o1,1,17%,1,7.8,-2,16,3,2.7,-0.3,3.5
CCC(C(=O)OCC(=O)Nc1ccc(OC)cc1OC)c1ccccc1 (centres undefined),-15,.,20,0.9,-4,.,.,.,-0.4,-3.5
CCOc1ccc(CN2CCN(Cc3c(C)nn(CC)c3C)CC2CCO)cc1 (centres undefined),9,0%,-9,-0.2,-4,9,14,2.4,1.0,3.5
CCc1ccc(NC(=O)CCNS(=O)(=O)c2cccc3nonc23)cc1,2,53µM*,13,-0.3,.,.,.,.,-1.2,.
CCOC(=O)C1CCCN(C2CC(=O)N(c3ccc(N4C(=O)CC(N5CCCC(C(=O)OCC)C5)C4=O)cc3)C2=O)C1 (centres undefined),-5,17%,1,0.9,0,.,.,.,-0.4,.
